High-throughput results from PubChem.
gsp ag = activates gsp, the McCune-Albright syndrome mutation. gsp mutant cells, cAMP HTRF, 30 min; control for the full effect not named in the record. Potency, µM (doses to about 76.9 µM), for inactives: top-dose activation (cAMP increase), most hits filed as activators. 0.13% of 340,000 active; active = well fitted activation curve with a large enough effect; inconclusive = small, poorly fitted or top-dose-only effect, or another doubt; inactive = no such curve, though single readings can be large or run the other way; cell line not stated here;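 note: phosphodiesterase inhibitor Ro 20-1724 added with compounds to block cAMP breakdown; potency is the fitted concentration of half-maximal effect; nearly all actives have a fitted effect of over 60% in size; about a fifth of the inactives were tested at one dose only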
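Cells stably selected in G418 were plated at 2000/well, grown 16-24 hr, then given compounds in DMSO with the PDE inhibitor […] (300 uM solution added) for 30 min at 37C; cAMP was read by HTRF.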
Menin-MLL FL inh = inhibitors of human menin-MLL interaction, wild-type MLL peptide; FP activity change, % at 61.4 µM; AID 1766; 290,000 tested, under 10 active; Fluorescence polarization, fluorescein-MLL peptide displacement from menin; inconclusive = falling polarisation curve, or a change in total fluorescence; inactive = total fluorescence flat and polarisation flat or rising; no compound was filed as active; the % refers to the polarisation; negative = inhibition;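 note: % of control where 0% means no effect; inhibitors lower the polarisation; unlabelled MLL peptide was the positive control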
TRPML1 inh = blocks the human TRPML1 channel; Q9GZU1; TRPML1-inducible cells, Ca2+ dye fluorescence, FDSS; active compounds read low; inhibition of EC80 agonist-evoked calcium signal; activity change, negative = inhibition, % (concentration not given with the values); 0.02% of 390,000 active; AID 624415; in the data active means activity change below about -50%; inconclusive means about -30% to -50%; inactive means above about -30%;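 note: stimulus is agonist 54-4 at its EC80 concentration; % is set by controls: 0 for no effect and ±100 for the full control effect; the text of the record puts the active cut at -80%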
Target sequence (Q9GZU1 whole entry, looked up): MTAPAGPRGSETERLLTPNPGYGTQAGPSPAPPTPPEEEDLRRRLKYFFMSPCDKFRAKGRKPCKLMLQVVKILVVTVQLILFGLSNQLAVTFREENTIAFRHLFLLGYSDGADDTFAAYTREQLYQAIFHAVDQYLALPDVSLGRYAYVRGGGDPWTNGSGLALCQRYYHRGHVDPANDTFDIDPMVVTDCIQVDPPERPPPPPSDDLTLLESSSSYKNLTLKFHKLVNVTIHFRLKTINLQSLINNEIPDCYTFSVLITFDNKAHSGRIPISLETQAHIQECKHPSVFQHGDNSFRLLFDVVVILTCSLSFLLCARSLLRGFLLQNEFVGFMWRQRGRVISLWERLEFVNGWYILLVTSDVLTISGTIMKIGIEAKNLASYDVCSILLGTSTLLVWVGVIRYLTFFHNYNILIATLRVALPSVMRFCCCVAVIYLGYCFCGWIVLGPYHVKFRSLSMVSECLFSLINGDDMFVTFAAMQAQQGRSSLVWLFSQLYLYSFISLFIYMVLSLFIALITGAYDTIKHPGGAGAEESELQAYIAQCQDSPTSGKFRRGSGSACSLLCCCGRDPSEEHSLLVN
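Tet-induced TRPML1-DL cells loaded with Ca8 no-wash calcium dye were read kinetically on FDSS. Compound addition was followed by EC80 agonist 54-4 (4 uM final); inhibition was read over 110 s.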
TRPV1 PAM = potentiators of human vanilloid receptor 1 (TRPV1); Q8NER1; TRPV1-expressing cells, Fluo-8 calcium influx, capsaicin EC20 potentiation; host cell line not named in the record; control for the full effect not named in the record; potentiation, % at 8.33 µM; 0.02% of 320,000 active; AID 540277; active means potentiation above 80%; inconclusive means 30% to 80%; inactive means below 30%; note: 0% is about no effect
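TRPV1-expressing cells were cultured overnight at 35.5C and loaded with Fluo-8 calcium dye for 40 to 90 min at room temperature. After a 10 s baseline, compound was added and calcium influx was read kinetically for 3 min (ex 480/em 520 nm).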
gsp antagonist = antagonists of gsp mutant (McCune-Albright syndrome) | gsp-mutant cells, cAMP HTRF, 30 min; control for the full effect not named in the record | Potency, µM (doses to about 76.9 µM), inactives show at the top dose activity change, negative = inhibition, usual class: inhibitors | 0.4% of 340,000 active; active = falling curve of any shape with a large fitted effect; inconclusive = falling curve, mostly with a smaller effect; inactive = flat or rising curve; cell line not stated here;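 note: intracellular cAMP measured with PDE inhibitor Ro 20-1724 present during compound exposure; potency is the fitted concentration of half-maximal effect; % is set by controls: 0 for no effect and ±100 for the full control effect; nearly all actives have a fitted effect of over 65% in size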
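G418-selected cells were plated in DMEM/10% FBS for 16-24 h at 37C, then treated with compounds plus the PDE inhibitor […] (300 uM solution added) for 30 min at 37C. Intracellular cAMP was measured by HTRF after 30 min lysis at room temperature.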
Sfp PPTase inh = inhibitors of Bacillus subtilis Sfp phosphopantetheinyl transferase. 3.5% of 310,000 active. Biochemical Sfp PPTase activity, qHTS. Potency, µM, for the others: max response, negative = inhibition, usual class: inhibitors; active = well fitted inhibition curve with a large enough effect; inconclusive = small, poorly fitted or top-dose-only effect, or another doubt; inactive = no such curve, though single readings can be large or run the other way;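 note: the enzyme is Sfp with the accession as filed and its product quenches rhodamine fluorescence; potency is the fitted concentration of half-maximal effect; 0% = enzyme reaction without inhibitor and -100% = no enzyme wells; top concentration of the series not given in the record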
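Sfp 15 nM + cpd, 15 min RT; start w/ rhodamine-CoA 5 uM, BHQ-2-YbbR 12.5 uM (final); 50 mM Hepes pH 7.6, 10 mM MgCl2, 0.01% NP-40, 0.01% BSA; read 525/598 nm at 0 and 30 min.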
ClpP mod = qHTS Assay for Activators of ClpP; ATP-dependent Clp protease proteolytic subunit (Bacillus subtilis (strain 168)), P80244; purified B. subtilis ClpP, FRET peptide cleavage, 20 min; Potency, µM (top dose mostly 57.5 µM), for the others: at the highest dose activity change, negative = active; 1.9% of 340,000 active; active = well fitted falling curve with a large enough effect; inconclusive = small, poorly fitted or top-dose-only effect; inactive = no such curve, though single readings can be large or run the other way; note: potency is the fitted concentration of half-maximal effect; the source files actives as falling curves though it sought activators and does not explain the sign; nearly all actives have a fitted effect of over 65% in size; many hits overshoot -100%
Target sequence (P80244 whole entry, looked up): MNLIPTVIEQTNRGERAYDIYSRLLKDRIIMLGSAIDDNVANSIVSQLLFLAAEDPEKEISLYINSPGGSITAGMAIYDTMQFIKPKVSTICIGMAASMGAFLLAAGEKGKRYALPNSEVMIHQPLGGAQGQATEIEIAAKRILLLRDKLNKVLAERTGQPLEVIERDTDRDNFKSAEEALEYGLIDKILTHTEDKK
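Buffer: 100 mM Tris/HCl pH8, 100 mM KCl, 0.05% low protease BSA, 2.5% glycerol, 0.01% Tween-20. ClpP 10 microg/mL final; 20 min RT; delta FRET normalized to ADEP and DMSO controls.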
Numbers without * were called inactive; ? = inconclusive; · = not tested or not shown; & = joins results of further samples; [ ] = another dose, or the depositor's remark.

The line under a structure holds: Menin-MLL FL inh | ClpP mod | TRPML1 inh | gsp antagonist | TRPV1 PAM | gsp ag | Sfp PPTase inh
O=C(NNC(=S)NCc1ccccc1)c1ccccc1OC(F)F
→ 6.0 | 0.7% | -3 | 5% | -10 | 4% | 6%
CC(C)c1cc(CNC(=O)C2CCC(=O)N(Cc3ccccc3F)C2)on1 (stereo not given)
→ · | -1.2% | 2 | 10% | -2 | -2%[15.4 µM] | 7%
CC1(C)CC(NC(=O)c2cc(S(=O)(=O)N3CCOCC3)ccc2Cl)CC(C)(C)N1
→ · | -1.9% | 17 | 11% | · | -9% | ·
Cc1ccc(NC(=O)N2CCc3ccccc3C2)cc1
→ 1.9 | -1.9% | -1 | 3% | -5 | 11% | -9%
CCCCCOc1ccc(C(=O)Nc2ccc(N3CCOCC3)cc2N2CCOCC2)cc1
→ · | 2.2% | 1 | 10% | -2 | -32%[inhibitor] | ·
OCC1(CC2CCCCO2)CCN(Cc2ccccc2-c2ccco2)CC1 (stereo not given)
→ 0.7 | · | -8 | 4% | 7 | -2%[15.4 µM] | 8%
Cc1ccc2nc(Cc3ccc(N)cc3)[nH]c2c1
→ 3.6 | -2.4% | -12 | 3% | -1 | -61%[inhibitor] | 4%
Cc1cc(-c2ccc(C)c(S(=O)(=O)NCc3cccc(Br)c3)c2)on1
→ -1.0 | -1.1%&-0.1% | -10&-9 | ? | 2 | 5% | 13%
N#Cc1ccc(OCC(=O)OCCCOC(=O)COc2ccc(C#N)cc2)cc1
→ · | 1.3% | 21 | -23% | 1 | 7% | 8%
Cc1ccc(OCC(O)CN2CCOCC2)cc1C (stereo not given)
→ -4.7 | 1.0% | 6 | 3% | 12 | -16% | -1%
CCOC(=O)CSc1nnc(-c2ccccc2)c(-c2ccccc2)n1
→ 1.3 | · | 29 | -11% | -18 | 11%[15.4 µM] | -2%
Cn1cc(C(F)(F)F)nc1-c1ccc(OCC(O)CNCCOc2ccc(O)c(C(N)=O)c2)cc1 (stereo not given)
→ 2.3&0.8 | 4.6% | -2 | -1% | 5 | · | 13%&3%
COc1ccc(-c2nc(NC(=O)c3n[nH]c(=O)c4ccccc34)sc2C)cc1
→ 14 | 1.4% | 17 | 6% | -6 | -21% | 9%
O=C1C2C3C=CC(CC3)C2C(=O)N1/N=C/c1ccc(O)c(O)c1 (stereo not given)
→ 3.2 | -6.0% | 26 | 1% | -17 | 5% | -29%
Cc1cccc(NC(=O)NC2CCCCCCC2)c1
→ · | 1.4% | 3 | -23% | -10 | -2% | -9%
CN(C)CCCn1c(SCC(=O)Nc2sc3c(c2C#N)CCCC3)nnc1-c1ccncc1
→ 2.0 | 0.1% | 9 | 1% | -5 | -8% | ?
COC(=O)CNC(=O)C(CCSC)NC(C)=O (stereo not given)
→ 0.1 | · | -15 | 2% | 5 | -11% | 14%
CC(C)CCC(C)NC(=O)CN1C(=O)NC(C)(c2ccc3ccccc3c2)C1=O (stereo not given)
→ · | -5.5% | 42 | -4% | -4 | -16% | 19%
CCCCC(=O)c1ccc(OC(=O)c2ccc([N+](=O)[O-])cc2)cc1
→ · | · | 1 | -5% | · | ? | ·
C[C@@H]1CN([C@H](C)CO)C(=O)c2cc(NC(=O)Nc3ccc(C(F)(F)F)cc3)ccc2O[C@H]1CN(C)C(=O)Nc1ccc(F)cc1
→ · | -2.5% | 7 | 3% | · | -29% | ·
COc1ccc(C(NC(=O)/C=C/c2ccco2)c2ccc(OC)c(OC)c2)cc1OC
→ 9.4 | -9.0% | 50 | 4% | 14 | -9% | 20µM*
COc1ccc(CCNC(=O)C2CCC(CNc3c(N4CCCC4)c(=O)c3=O)CC2)cc1OC (stereo not given)
→ 0.6 | -0.6% | -2 | 4% | -17 | 12% | 12%
C=CCN(Cc1cccs1)C(=O)COc1ccc2c(c1)OCO2
→ · | 0.0% | -7 | -11% | · | 5%[15.4 µM] | ·
c1coc(Cn2nnnc2CN2CCN(C3CCCC3)CC2)c1
→ 3.2 | 0.7% | 20 | 7% | -14 | -13% | -17%
CC(=O)c1cccc(NC(=O)Nc2c(C)nn(C)c2C)c1
→ 4.2 | -0.6% | 0 | 5% | ? | 2% | -10%
COc1cccc(NC(=O)Cc2c(C(=O)O)[nH]c3ccccc23)c1
→ 1.4 | -1.7% | -2 | -24% | 13 | -26% | 11%
CCOc1ccccc1C(=O)OCC(=O)Nc1cc(S(=O)(=O)N2CCOCC2)ccc1C
→ · | -5.9% | 25 | -3% | 4 | -33% | ·
Cc1nc2sccn2c(=O)c1S(=O)(=O)Nc1ccc(N2CCN(C(=O)C(C)C)CC2)cc1
→ 3.0 | -6.6% | 8&-6 | -10% | ? | -40%[inhibitor] | 11%
CCN(CC)S(=O)(=O)c1ccc(Cl)c(NC(=O)COC(=O)/C=C/c2ccc(O)c(OC)c2)c1
→ 6.2 | 1.9% | 1 | ? | -12 | 7%[15.4 µM] | 14%
C/C(CC1CC(COCC(C)C)OC1=O)=N\Nc1nc(-c2ccccc2)cs1 (stereo not given)
→ 4.7 | -2.8% | -2 | -1% | 19 | -5% | ?
CC1=C(C#N)C(Nc2ccc(C)cn2)(C(F)(F)F)C(=O)N1 (stereo not given)
→ -0.5 | -3.6% | 12 | -5% | -2 | -32%[inhibitor] | 10%
COC(=O)C1C(C(=O)OC)C1(c1ccccc1)c1ccccc1 (stereo not given)
→ 3.3 | -2.5% | -12 | -1% | -6 | -16%[15.4 µM] | 16%
N#CC1=C2SC=C(c3ccc(Br)cc3)N2CCCC1=O
→ 9.6 | · | -22 | ? | 9 | 10% | -12%
CC(C)C[C@H]1CNC(=S)N1CC1CCN(CCCC2CCCC2)CC1
→ · | 1.7% | 13 | 4% | · | · | ·
O=C(CN1CCOCC1)NCCNS(=O)(=O)c1ccccc1
→ 2.4 | -12% | 10 | -1% | -8 | -29% | 10%
CCOc1cccc(OCCCCn2ccnc2)c1
→ -0.3 | 0.6% | 74 | -5% | 4 | -13% | -12%
C=C(C)COc1ccc(-c2ncncc2-c2ccc(OC)cc2)c(O)c1
→ -0.8 | -1.7% | 18 | -11% | 1 | 0% | -4%
CCOC(=O)c1c(C)[nH]c(C(=O)OCC(=O)N(C)C2CCS(=O)(=O)C2)c1C (stereo not given)
→ 2.4 | 0.7% | 79 | -19% | 12 | 0% | 11%
CCOC(=O)N1CCN(C(=O)C2CCN(C(=O)c3ccc(C(C)(C)C)cc3)CC2)CC1
→ 6.1 | -0.4% | 16 | -2% | 12 | 18%[15.4 µM] | 17%
O=S(=O)(c1ccccc1)N1CCN=C1SCc1ccc(Cl)c(Cl)c1
→ 5.2 | -3.7% | 105 | -17% | 3 | -44%[inhibitor] | 5%
CCOC(=O)c1cc(OC(C)=O)c2ccc(OC)c(OC)c2c1
→ · | -18% | -10 | · | · | 8% | ·
COc1ccc(NC(=O)c2cc(F)c(F)cc2Cl)cc1Cl
→ 3.7 | · | -21 | -1% | -8 | -2%[15.4 µM] | 10%
CCOc1cccc2sc(N(CCCN(C)C)C(=O)c3ccc(S(=O)(=O)N(C)CC4CCCO4)cc3)nc12 (stereo not given)
→ · | 1.8% | 3 | 4% | -4 | -36%[15.4 µM] | 1%
COc1ccccc1CNC(=O)C(NC(=O)Nc1ccccc1)C(C)C (stereo not given)
→ 0.8 | 1.1% | 19 | -12% | 29 | 21%[15.4 µM] | 5%
Cc1ccc(CNC(=O)CC2Nc3c4ccccc4nc(=S)n3C2=O)cc1 (stereo not given)
→ 3.3 | · | · | · | 11 | · | -22%
COc1ccc(N(C(=O)CNC(=O)c2cccs2)C(C(=O)NCC2CCCO2)c2ccc(OC)c(OC)c2)cc1 (stereo not given)
→ -3.1 | · | 0 | 5% | -1 | 17%[15.4 µM] | 23%
Cc1cc(/C=C2\C(=N)N3N=C(C(C)C)SC3=NC2=O)c(C)n1Cc1ccccc1
→ 8.8 | · | 2 | 1% | -5 | 5%[15.4 µM] | ?
NC(=S)N/N=C/c1ncc(C(F)(F)F)cc1Cl
→ ? | · | 21 | 1% | 6 | 12%[15.4 µM] | 25µM*
NS(=O)(=O)c1ccc(NC(=O)COC(=O)CCc2c[nH]c3ccccc23)cc1
→ -1.8 | -2.0% | -4 | 7% | 3 | -9% | 19%
O=C(NCCc1ccc(Cl)cc1)c1ccc(NC2=NC3CS(=O)(=O)CC3S2)cc1 (stereo not given)
→ 4.9 | 2.0% | -6 | -4% | 6 | -18% | -12%
CCOC(=O)C1(Cc2ccc(Cl)cc2)CCN(Cc2ccon2)CC1
→ 2.5 | 0.5% | -8 | 7% | 7 | -33%[inhibitor] | 7%
Cc1cc2cc(C)c(NCCNC(=O)c3cccs3)nc2cc1C
→ -0.5 | · | 6 | -6% | 1 | -19%[15.4 µM] | 25%
O=C(CSc1nncs1)NC1CCCc2ccccc21 (stereo not given)
→ -2.2 | 2.5% | 41 | 7% | -6 | -4% | 16%

Retrieved by compound from the list above, 4 records:
The line under a structure holds: Menin-MLL FL inh | ClpP mod | TRPML1 inh | gsp antagonist | TRPV1 PAM | gsp ag | Sfp PPTase inh
O=S(=O)(c1ccccc1)N1CCN=C1SCc1ccc(Cl)c(Cl)c1
→ 5.2 | -3.7% | 105 | -17% | 3 | -44%[inhibitor] | 5%
Cc1ccc(CNC(=O)CC2Nc3c4ccccc4nc(=S)n3C2=O)cc1 (stereo not given)
→ 3.3 | · | · | · | 11 | · | -22%
CCOC(=O)c1c(C)[nH]c(C(=O)OCC(=O)N(C)C2CCS(=O)(=O)C2)c1C (stereo not given)
→ 2.4 | 0.7% | 79 | -19% | 12 | 0% | 11%
O=C(CN1CCOCC1)NCCNS(=O)(=O)c1ccccc1
→ 2.4 | -12% | 10 | -1% | -8 | -29% | 10%
